Bioassay records (PubChem)
AmpC nodet inh – blocks E. coli AmpC beta-lactamase in absence of detergent; P00811; AmpC nitrocefin hydrolysis, absorbance 480 nm, no detergent; potencies from a single point are estimates; Potency, µM (top dose mostly 28.7 µM), for the others: top-dose activity change, negative = inhibition; actives 1.8% (n = 71,000); active = falling curve, for most hits resting on a single point; inconclusive = weak or doubtful change; inactive = flat or rising curve; further: % of control where 0% means no effect; about half of the hits show no inhibition at the top dose; a quarter of the inactives give rising signals
Target sequence (P00811 whole entry, looked up): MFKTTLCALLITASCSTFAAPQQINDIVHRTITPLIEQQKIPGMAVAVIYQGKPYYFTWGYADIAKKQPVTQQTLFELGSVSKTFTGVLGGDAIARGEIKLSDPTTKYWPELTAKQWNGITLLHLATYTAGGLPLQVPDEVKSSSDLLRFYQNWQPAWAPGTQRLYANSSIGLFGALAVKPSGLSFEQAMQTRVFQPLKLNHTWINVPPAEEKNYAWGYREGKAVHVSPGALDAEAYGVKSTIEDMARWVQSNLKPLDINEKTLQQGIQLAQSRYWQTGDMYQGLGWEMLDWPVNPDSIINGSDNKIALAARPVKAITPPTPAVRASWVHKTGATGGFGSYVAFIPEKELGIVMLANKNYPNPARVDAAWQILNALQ
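Enzyme, pH 7.0 phosphate. Compound titrations were pre-incubated with AmpC for 15 min at room temperature before nitrocefin (stock 800 uM) addition; product formation was recorded at 480 nm every 20 s for 4 min.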
* = called active by the depositor; ? = inconclusive; & = joins results of further samples; [ ] = dose if it differs, or a comment. Potency means the concentration at half of the fitted maximal effect. This is a subset; count on the stated rates, not on these rows.

SMILES	AmpC nodet inh
O=C(CN1CCN(Cc2ccccc2)CC1)c1c[nH]c2ccccc12	10%
CCC(CC)NC(=O)c1n[nH]c(=O)c2ccccc12	-2%
Cc1cc(Cl)ccc1OCCCC(=O)NC1CCN(C)CC1	14%
O=S1(=O)NC(=NCc2ccccc2)c2ccccc21	-1%
CCCn1c(=O)[nH]c(=O)c2[nH]cnc21	5%
COc1ccc(/C=N/n2cc(-c3ccccc3)nc2N)cc1	-12%
CC1Cc2nc(SCC(=O)NCc3ccco3)n(-c3ccccc3)c(=O)c2S1 (stereo unspecified)	-1%
COc1ccccc1NC(=O)COc1ccc(C(=O)OCC(=O)N2CCCC2=O)cc1OC	9%
c1c2c(cc3sc(N4CCCCC4)nc13)OCO2	24%
O=C1c2ccccc2C(Nc2ccc(F)c(Cl)c2)N1c1ccccn1 (stereo unspecified)	4µM*[single pt active]
CC(C(=O)NCC1CCCO1)N(C(=O)c1snc(C(N)=O)c1N)c1cccc(F)c1 (stereo unspecified)	50%
Cc1ccccc1CN1CCN(CC(=O)NCc2ccccc2)C1=O	21%
Cc1ccc(-c2nnc(N(C)C(=O)c3cccnc3)s2)cn1	15%
Cc1ccc(-c2nn[nH]n2)o1	4%
COC(=O)[C@@]1(Cc2ccc(OC)cc2)[C@H]2c3cc(C(=O)N(C)C)n(Cc4ccc(Cl)c(C(F)(F)F)c4)c3C[C@H]2CN1C(=O)c1ccccc1	102%
CC(C)CN(CCNC(=O)CC1Oc2ccccc2NC1=O)CC(C)C (stereo unspecified)	4µM*[single pt active]
COc1ccc(C2Nc3ccccc3C(=O)N2O)cc1OC (stereo unspecified)	5%
COCCCNS(=O)(=O)c1ccc2c3c(cccc13)C(=O)S2	20%
O=C(C1CC1)N1CCN(c2nc3ccccc3s2)CC1	10%
CCCOc1ccc(N2CC(C(=O)Nc3ccccc3OC)CC2=O)cc1 (stereo unspecified)	79%
CC1=C(C(=O)N2CCOCC2)C(c2cc(C)cs2)NC(=O)N1 (stereo unspecified)	-2%
CCOc1ccc2[nH]c3c(N4CCN(c5ccccn5)CC4)ncnc3c2c1	43%
CCOC(=O)c1ccc(NC(=O)CSc2nnc(CNc3ccc(OC)cc3)n2C)cc1	31%
CCc1cc(C(=O)NCCN(C)C)cs1	103%
CCCS(=O)(=O)N1CCCC(C(=O)NCC2CCCO2)C1 (stereo unspecified)	3%
CCCCCCC(=O)Nc1c(O)c2ccccc2[nH]c1=O	-3%
O=C(Nc1cccc(F)c1)c1cccnc1N1CCOCC1	14%
N=C(N)SC(c1ccccc1)c1ccccc1	-4%[5.75 µM]
COc1cc(NC(=O)c2cccs2)cc(OC)c1	-7%
COC(=O)CSc1nnc(-c2ccco2)o1	0%
Cc1ccccc1N1CC(c2nc3ccccc3[nH]2)CC1=O (stereo unspecified)	2%
Cc1ccc(NC(=O)NCCN2C(=O)C3C4C=CC(C4)C3C2=O)cc1 (stereo unspecified)	4µM*[single pt active]
CN(C)c1nc(N)nc(N(c2ccccc2)c2ccccc2)n1	49%
O=C(O)C1CCN(Cc2cnn(-c3ccccc3)c2-n2cccc2)CC1	38%
CCN(Cc1ccccc1)C(c1cc2cc(C)ccc2[nH]c1=O)c1nnnn1CCOC (stereo unspecified)	96%
Cn1cc(S(=O)(=O)Nc2ccc(Br)cc2F)c(=O)n(C)c1=O	6%
CCOC(=O)CNc1nnc(SCC(=O)OCC)[nH]c1=O	-1%
O=C(O)/C=C(\CC(=O)O)C(=O)O	-1%[5.75 µM]
C=CCn1nnnc1SCC(=O)Nc1cccc(OC)c1	7%
COc1cccc(Cn2c(=O)c(-c3ccc(F)cc3)nc3cnc(N(C)C)nc32)c1	10%
C=CCn1c(SCC(=O)Nc2cccc(C)c2)nnc1-c1cnccn1	36%
CCOC(=O)COc1ccc2c(c1)C(=O)CC1(CCN(C(C)=O)CC1)O2	6%
CC(=O)N1CCc2cc(S(=O)(=O)NCCC(=O)N3CCN(c4ccccn4)CC3)ccc21	32%
CCCS(=O)(=O)N1CCC(C(=O)N2CCc3ccccc3C2)CC1	17%
Nc1cnn([C@@H]2O[C@H](CO)[C@@H](O)[C@H]2O)c(=O)n1	-4%

Two neighbouring entries already listed, quoted:
SMILES	AmpC nodet inh
Cc1ccccc1N1CC(c2nc3ccccc3[nH]2)CC1=O (stereo unspecified)	2%
Cc1ccc(NC(=O)NCCN2C(=O)C3C4C=CC(C4)C3C2=O)cc1 (stereo unspecified)	4µM*[single pt active]

Later entries:
SMILES	AmpC nodet inh
Cc1oc(-c2cccc(Cl)c2)nc1CN1CCC(C(=O)NCCCN2CCCC2=O)CC1	113%
O=C(Nc1cccc(F)c1)C1CCN(c2nnnn2-c2ccccc2)CC1	12%
Cc1ccc(C(=O)NCCCC(=O)O)o1	16%
Cc1onc(-c2ccccc2Cl)c1C(=O)NCCN1Cc2ccccc2C1=O	45%
COc1cc(NC(=O)c2ccco2)c(OC)cc1NC(=O)Nc1ccc(Cl)cc1	76%
O=C(c1ccccc1)c1ccccc1C(=O)N1CCCC1	0%
COC(=O)c1ccc(C(=O)OC)c(NS(=O)(=O)c2ccc(NC(C)=O)cc2)c1	67%
O=C1CC(c2ccccc2)Cc2nc(N3CCc4ccccc43)ncc21 (stereo unspecified)	2%
CN1CCCc2cc(C#N)c(=O)[nH]c21	0%
O=C(Nc1ccc(Cl)cc1)C1CC2CCCC(C1)C2=O (stereo unspecified)	1%
COC(=O)c1cc2occc2n1CC(=O)Nc1ccc(OC)c(OC)c1	23%
CC(C)NC(=O)N1CC[C@@]2(CCCN(C(=O)c3ccncc3)C2)C1	-15%
O=C(OCCCCN1C(=O)c2ccccc2C1=O)c1ccc(Br)o1	18%
C[C@]1(C(=O)NCc2cc(F)cc(C(F)(F)F)c2)C=C[C@@H](Cc2ccccc2)N1C(=O)c1ccccc1	66%
O=C1C2[C@@H](c3ccccc3)N[C@@H](c3ccccc3)C1[C@H](c1ccccc1)N[C@H]2c1ccccc1	0%[5.75 µM]
O=C(NCc1ccccc1Cl)c1cnn2cccnc12	-10%
CCCn1c(CNc2ccccc2O)nc2ccccc21	-8%
Cc1ccn2cc(C(=O)Nc3ccc4c(c3)OCCO4)nc2c1	10%
CCC(=O)Nc1c(C(=O)N2CCCCCC2)cnn1-c1ccc(C)c(C)c1	20%
CCN(CC)S(=O)(=O)c1ccc(Cl)c(C(=O)NC)c1	-7%
O=C(CN1C(=O)C2C3C=CC(C3)C2C1=O)NCCc1ccccc1 (stereo unspecified)	0%
Cc1ccc(S(=O)(=O)N2CCC(C(=O)Nc3ccccc3N3CCCCC3)CC2)cc1	10%
CCCC/C=C/C(NC(=O)CCc1ccccc1)c1ccccc1 (stereo unspecified)	-9%
CCC(C)(C)NC(=O)CC(c1ccc(OC)cc1)n1cccc1 (stereo unspecified)	11%
CCOC(=O)N1CCN(C(=O)CSc2nnc(-c3ccc(C(C)(C)C)cc3)o2)CC1	8%
COc1ccc(-c2noc(CCC(=O)N3CCN(c4cc(C)ccc4C)CC3)n2)cc1	81%
COc1ccc(N2CCN(c3ncnc4c3cnn4-c3ccc(C)cc3C)CC2)cc1	34%
c1cncc(CNc2nc(-c3cccnc3)nc3ccccc23)c1	24%
O=C(CCC1COc2ccccc2O1)NCC1COc2ccccc2O1 (stereo unspecified)	36%
CC(C)(C)c1nc2scc(-c3cccs3)c2c(=O)o1	-10%
Nc1c(NCCC2=CCCCC2)c(=O)[nH]c(=O)n1Cc1ccccc1	-2%
CCOC(=O)CSc1nc2cc(C(=O)NCc3ccco3)ccc2c(=O)n1-c1ccc(F)cc1	-8%
CC(=O)N1C[C@@H]2C[C@H](C1)c1cccc(=O)n1C2	3%
O=c1cc(NCc2ccc3c(c2)OCO3)[nH]c(=O)n1-c1ccc(Cl)cc1	?
COc1ccc(OC)c(N(CC(=O)N2CCN(c3cc(Cl)ccc3C)CC2)S(C)(=O)=O)c1	124%
O=C1CC(c2ccco2)Cc2nc(Nc3ccc(F)cc3)ncc21 (stereo unspecified)	9%
COc1cc2cc(CN(C(=O)NC3CCCCC3)C3CCCC3)c(=O)[nH]c2cc1OC	52%
O=C(NCCCN1CCCCC1)C1(S(=O)(=O)c2ccc(Cl)cc2)CC1	4µM*[single pt active]
COc1cccc(Cn2c(=O)c(-c3cccs3)nc3cncnc32)c1	5%
Cn1c(-c2ccc3c(c2)OCO3)cc(=O)c2ccccc21	10%[12.8 µM]
COCCNC(=O)C1CC(=O)N(C2CCCCC2)C1 (stereo unspecified)	-5%
COc1ccccc1N(CC(=O)Nc1ccccc1C)S(C)(=O)=O	0%
CN1C(=O)c2ccccc2C(C(=O)O)C1c1cccc(F)c1 (stereo unspecified)	-5%
COCCn1nnnc1CN1CCC(Cc2ccccc2)CC1	51%
COc1ccc(NC(=O)CN(C)S(=O)(=O)c2cccs2)cc1	-2%

Exported comma-delimited: 19 of the compounds above.
structure,AmpC nodet inh
CCOC(=O)c1ccc(NC(=O)CSc2nnc(CNc3ccc(OC)cc3)n2C)cc1,31%
CCc1cc(C(=O)NCCN(C)C)cs1,103%
CCCS(=O)(=O)N1CCCC(C(=O)NCC2CCCO2)C1 (stereo unspecified),3%
CCCCCCC(=O)Nc1c(O)c2ccccc2[nH]c1=O,-3%
O=C(Nc1cccc(F)c1)c1cccnc1N1CCOCC1,14%
N=C(N)SC(c1ccccc1)c1ccccc1,-4%[5.75 µM]
COc1cc(NC(=O)c2cccs2)cc(OC)c1,-7%
COC(=O)CSc1nnc(-c2ccco2)o1,0%
Cc1ccccc1N1CC(c2nc3ccccc3[nH]2)CC1=O (stereo unspecified),2%
Cc1ccc(NC(=O)NCCN2C(=O)C3C4C=CC(C4)C3C2=O)cc1 (stereo unspecified),4µM*[single pt active]
CN(C)c1nc(N)nc(N(c2ccccc2)c2ccccc2)n1,49%
O=C(O)C1CCN(Cc2cnn(-c3ccccc3)c2-n2cccc2)CC1,38%
CCN(Cc1ccccc1)C(c1cc2cc(C)ccc2[nH]c1=O)c1nnnn1CCOC (stereo unspecified),96%
Cn1cc(S(=O)(=O)Nc2ccc(Br)cc2F)c(=O)n(C)c1=O,6%
CCOC(=O)CNc1nnc(SCC(=O)OCC)[nH]c1=O,-1%
O=C(O)/C=C(\CC(=O)O)C(=O)O,-1%[5.75 µM]
C=CCn1nnnc1SCC(=O)Nc1cccc(OC)c1,7%
COc1cccc(Cn2c(=O)c(-c3ccc(F)cc3)nc3cnc(N(C)C)nc32)c1,10%
C=CCn1c(SCC(=O)Nc2cccc(C)c2)nnc1-c1cnccn1,36%

Later entries:
SMILES	AmpC nodet inh
CCOC(=O)N1CCC(Nc2c(N3CCN(c4cc(Cl)ccc4C)CC3)c(=O)c2=O)CC1	124%
CCN(CC)S(=O)(=O)c1cccc(C(=O)Oc2cccnc2)c1	19%
CCc1cccc(NC2c3ccccc3C(=O)N2c2cccnc2)c1 (stereo unspecified)	4µM*[single pt active]
COc1ccccc1CN1CCN(C(=O)COc2ccccc2)CC1	35%
CC1CCN(C(c2ccc(N(C)C)cc2)c2nnnn2Cc2ccccc2)CC1 (stereo unspecified)	40%
Cc1cc(-c2ccccc2)nc(=O)[nH]1	-9%
COCCCn1c(SCC(=O)NC2CCCCC2)nnc1-c1ccncc1	1%
O=C(c1ccc(-c2nnc(-c3ccccc3)o2)cc1)N1CCCCCC1	78%
Cc1cc(C)c(C(N)=O)c(Nc2cccc(Cl)c2C)n1	-2%
CCOC(=O)C(C(C)=O)c1nc(C)nc2c1nnn2Cc1ccccc1Cl (stereo unspecified)	75%
C[C@@H](C(=O)Nc1ccc2ccccc2c1)[C@@H]1C[C@@]1(C)[C@@H](NC(=O)c1cccnc1)c1ccccc1	103%
CCOc1ccccc1CNC(=O)C1CCC(=O)N1C(C)C (stereo unspecified)	-6%
CC(C)=CCc1c(C)nc2ccccc2c1C(=O)O	-5%
Cc1cc(C(=O)NCc2cccs2)c(C)o1	-1%
O=C(Nc1ccccc1)N1CCCN(Cc2ccccc2F)C1	3%
COc1ccccc1N(CC(=O)NC1CCCC1)C(=O)CCC(=O)Nc1cc(C)on1	28%
CCOC(=O)C(NC(=O)c1ccc(OC)cc1)(OCC1(CC)COC1)C(F)(F)F (stereo unspecified)	36%
COc1ccccc1-c1nc(NCc2cccs2)c2ccccc2n1	35%
COc1ccc(NC(=O)c2cc(-c3cc(C)ccc3O)n[nH]2)cc1Cl	-12%
Cn1c(=O)n(Cc2ccc(F)cc2)c(=O)c2c1nc1n2CCCN1Cc1ccccc1	50%
CCCS(=O)(=O)N1CCN(Cc2ccc(OCc3ccccc3)c(OC)c2)CC1	160%
CCOC(=O)N1CCN(C(=O)c2cccc(NC(=O)c3ccco3)c2)CC1	14%
O=C(Nc1nn(Cc2ccccc2F)cc1Br)c1cccs1	-12%
CC(C)[C@H](CO)Nc1nc(Nc2cccc(Cl)c2)c2ncn(C(C)C)c2n1	107%&95%
O=C(COc1ccc(Cl)cc1Cl)NC(=O)N1CCCCC1	29%
O=C(c1cnn2c1NC(c1ccc(Br)cc1)CC2C(F)(F)F)N1CCN2CCCC2C1 (stereo unspecified)	137%
O=C(NCc1ccncc1)C12CC3CC(CC(C3)C1)C2	1%
C=CCOC(=O)C1=C(C)NC(=O)NC1C1CC=CCC1 (stereo unspecified)	6%
COc1ccc(-c2csc(N3CCN(C(=O)c4ccco4)CC3)n2)cc1	77%
Cc1cccc(-c2noc(CN(C(=O)c3ccc(Br)o3)C(C)C)n2)c1	24%
CCOC(=O)N1CCN(C(=O)C(C)(C)Oc2ccc(Cl)cc2)CC1	119%
Cc1cc(NCCCN2CCOCC2)n2ncc(-c3ccccc3)c2n1	110%
CN(C)S(=O)(=O)c1ccc2oc(SCC(=O)NCC(F)(F)F)nc2c1	1%
Cc1csc2ncc(C(=O)NCc3ccco3)c(=O)n12	-3%
COc1ccc(Cc2nccc3cc(OC)c(OC)cc23)cc1OC	61%
